# Screens: PubChem BioAssay, several laboratories
# Mtb hypoxia rep = Mtb hypoxia fluorescent reporter inhibition | M. tuberculosis hypoxia-regulated fluorescent reporter, fluorescence | fluorescence inhibition, % (no concentration beside the values) | 300,000 tested, 0.1% active | AID 1159583;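 active means 35 to 45% if threefold the growth effect, above 45% if 1.5-fold the growth effect; inactive means the rest, general growth blockers included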;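 further: wells of about 50 µL received 100 nL stock; 0% = vehicle wells and 100% = reference inhibitor wells; whole bacteria with a GFP reporter of the hypoxia response; strong numbers were not always called active; many hits fall short of the cut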
# PrP UTR inh = suppresses PrP 5' UTR mRNA reporter expression; inhibition, % (test concentration not listed); AID 488862; 340,000 tested, 0.35% active; cell-based PrP 5' UTR mRNA reporter, plate reader;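 active means every replicate at 50% or more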;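 further: 0 = median of the neutral control wells; tested in H4 reporter cells; numbers are from one replicate; inactives centre near -14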
# Sa ugtP lethal = kills S. aureus RN4220 lacking UgtP; growth inhibition, % (test concentration not listed); 330,000 tested, 0.54% active; S. aureus RN4220 ugtP deletion, OD600 growth, 16 h; some inactives read as strong as hits; AID 1259309;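 active means z-score under -3 and OD600 up to 0.15 on both plates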;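 further: plate controls were untreated wells for no effect and antibiotic for full effect; wells of about 80 µL received 100 nL stock; the first replicate is given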
# Autofluor counter = compound fluorescence in toxin protease inhibitor counterscreen | 360,000 tested, 3.1% active | AID 624483 | fluorescence intensity (test concentration not listed) | compound autofluorescence counterscreen, microsphere flow cytometry; active compounds read high;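 active means at least 3 SD above the mean of all compounds, about 16000 in these data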;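 further: 100 nL of 1 mM stock went into each well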
# BJeLR viability = BJeLR cell viability loss; 300,000 tested, 0.17% active; BJeLR (HRASV12) viability, CellTiter-Glo ATP luminescence, 48 h; reference of the scale not given here; inhibition, % (no concentration beside the values); AID 1554;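 active means replicate mean above 50%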;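 further: 50 nL library stock added to about 25 µL; numbers are from one replicate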
# Sa RN4220 lethal = S. aureus RN4220 growth inhibition. 330,000 tested, 0.33% active. inhibition, % (no concentration beside the values). AID 1259311. OD600, 16 h;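 active means z-score of -3 or lower and OD600 up to 0.18 on both plates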;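 further: plate controls were untreated cells for no effect and reference antibiotic for full effect; stock transfer was 100 nL into about 80 µL; one replicate is shown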
# Mtb hypoxia rep growth = further read-out of Mtb hypoxia rep, marked with its call; growth inhibition, %; measured here: M. tuberculosis growth (absorbance);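 0% = vehicle and 100% = reference antibiotic; read after six days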
# * marks the source's active call; other numbers are inactive results; / = no result given; & = joins results of further samples.
# Preview:
# The line under a structure holds: Mtb hypoxia rep	Mtb hypoxia rep growth	PrP UTR inh	Sa ugtP lethal	Autofluor counter	BJeLR viability	Sa RN4220 lethal
COc1ccc(Cn2nnnc2C(c2ccc(N(C)C)cc2)N2CCC(C)CC2)cc1 (stereo not drawn)
→ /	/	-23	-1	4743	6	0.4
CCc1ccccc1NC(=S)N(CCCN1CCN(C)CC1)Cc1cccs1
→ 0	10	-1	-5	3880	-5	1.8
CN1CCCN(C(=O)c2ccc(Br)cc2)CC1
→ -2	-1	-23	4	3754	5	3.4

# The list itself, from the start:
# The line under a structure holds: Mtb hypoxia rep	Mtb hypoxia rep growth	PrP UTR inh	Sa ugtP lethal	Autofluor counter	BJeLR viability	Sa RN4220 lethal
COc1ccc(Cn2nnnc2C(c2ccc(N(C)C)cc2)N2CCC(C)CC2)cc1 (stereo not drawn)
→ /	/	-23	-1	4743	6	0.4
CCc1ccccc1NC(=S)N(CCCN1CCN(C)CC1)Cc1cccs1
→ 0	10	-1	-5	3880	-5	1.8
CN1CCCN(C(=O)c2ccc(Br)cc2)CC1
→ -2	-1	-23	4	3754	5	3.4
C=CCOc1ccc(/C=C/C(=O)OCC(=O)NCc2ccco2)cc1
→ 0	9	-4	5	5744	-8	-0.7
CC(=O)OC1CC[C@@]2(C)C(=CC(=O)C3C4CCC(OC(C)=O)[C@@]4(C)CCC32)C1 (stereo partly drawn)
→ -14	-1	-11	2	3431	-4	4.2
CC(NC(=O)c1cccc(C(F)(F)F)c1)C1CCCO1 (stereo not drawn)
→ 7	1	-8	2	15789	-4	2.2
O=C1/C(=C/c2ccncc2)N2CCC1CC2
→ -1	5	20	10	/	3	6.0
Cc1cc(=O)[nH]c(NN=Cc2ccc(Cl)c([N+](=O)[O-])c2)n1
→ -13	6	/	7	/	/	2.2
COc1ccc(CN2CCN(C(=O)CCC(=O)Nc3nnc(CC(C)C)s3)CC2)cc1F
→ 0	13	-17	2	5401	-11	0.8
CC1(C)CC(=O)CC(=NCC(=O)O)C1
→ 2	-3	-20	9	8505	-2	4.6
Cc1cc(/C=N/n2cnnc2)c(C)n1-c1cccc(Cl)c1
→ /	/	-22	/	5736	0	/
Cc1cc(C(=O)N2CCCc3ccccc32)no1
→ 4	11	-20	-2	10848	-9	1.9
CC(C)CC(NC(=O)c1nc[nH]c1C(=O)NC(CC(C)C)C(=O)OC(C)(C)C)C(=O)OC(C)(C)C (stereo not drawn)
→ 1	-4	/	-2	/	/	-8.6
CC(C)(C)N1C(=O)C2C(c3ccc(Br)cc3)N3C(=O)N(c4ccc(Br)cc4)C(=O)[C@@]3(Cc3ccccc3)C2C1=O (stereo partly drawn)
→ 3	-1	/	-3	/	/	-0.4
CC(=O)c1ccc(N(C(=O)CNC(=O)c2ccco2)C(C(=O)NC2CCCC2)c2cccnc2)cc1 (stereo not drawn)
→ 8	5	-15	2	5308	1	2.7
CCNC(=S)N/N=C/c1cc(C)n(-c2ccc(Cl)cc2)c1C
→ /	/	-107	/	4527	-1	/
CN(C(=O)COC(=O)c1cc2c(s1)CCCCC2)C1CCS(=O)(=O)C1 (stereo not drawn)
→ 0	-2	-8	-6	5691	3	2.4
CNC(=O)N(O)C1N(N=Cc2cccs2)C(=S)SC1(C)C (stereo not drawn)
→ 7	18	/	-4	/	/	1.6
COc1ccc(N(C)S(=O)(=O)c2cccc(C(=O)Nc3nnc(C)s3)c2)cc1
→ 8	5	-26	10	2853	/	4.4
O=C(CSc1oc(-c2ccccc2)nc1S(=O)(=O)c1ccccc1)NCC1CCCO1 (stereo not drawn)
→ 6	3	-4	0	5863	0	0.1
Cc1cccc(NCC(=O)N/N=C\c2ccc[nH]2)c1
→ /	/	-26	/	3654	-13	/
O=S(=O)(NCCCc1ccccc1)c1cccc2nsnc12
→ 9	4	-5	11	2467	-3	1.3
O=C(NCc1cc(C(F)(F)F)cc(C(F)(F)F)c1)C12CN(Cc3ccccc3)CC1C(c1cccc([N+](=O)[O-])c1)=NO2 (stereo not drawn)
→ /	/	-2	/	3684	7	/
CCCCn1c(O)c(C(CC)=NCCc2ccccc2)c(=O)[nH]c1=O
→ 7	5	-8	-2	2448	-4	-14
COc1ccc(S(=O)(=O)NCC(c2cccnc2)N2CCN(C)CC2)cc1OC (stereo not drawn)
→ /	/	-4	/	4703	-8	/
Cc1cc(Cl)c(S(=O)(=O)N2CCN(c3ccc(F)cc3)CC2)cc1OCC(=O)NC1CCCCC1
→ -5	0	-1	-1	16526*	-9	2.2
COc1cccc(CN2CCNC(=O)C2CC(=O)N(C)C2CCCCC2)c1 (stereo not drawn)
→ 8	-2	-16	-2	6067	-1	1.1
C=CCn1c(-c2ccc(OC)c(OC)c2)cs/c1=N\c1ccccn1
→ /	/	-16	/	3362	2	/
COCCCNCCCCOc1ccc(C)cc1[N+](=O)[O-]
→ 7	0	-17	-8	2229	16	-1.5
COc1cc(CC(=O)OCC(=O)Nc2ccc3c(c2)OCCO3)cc(OC)c1OC
→ 8	-2	-8	-1	2215	4	8.3
CCC(C)C(NC(=O)OC(C)(C)C)C(=O)NC(C(=O)NC(C)C(N)=O)C(C)C (stereo not drawn)
→ 2	-8	-5	5	5131	7	7.1
N#Cc1ccccc1OCC(=O)Nc1c(C(=O)C2CC2)oc2ccccc12
→ 11	2	-2	4	8606	3	3.5
OCCOCCn1c(-c2ccccc2)nc(=S)c2c1CCCC2
→ 2	11	-7	7	4128	-12	-0.1
O/N=C(\C[n+]1ccccc1)c1ccc(Br)cc1
→ /	/	-22	/	3050	1	/
COc1ccc(NC(=O)C2CCN(S(=O)(=O)c3cccc4nonc34)CC2)cc1OC
→ 3	6	-2	-2	4527	-1	-1.9
COc1ccc(O)c(C=Nc2nc3ccccc3n2C)c1
→ 3	12	/	1	/	/	1.8
COc1ccc(N2C(=O)CC(NC34CC5CC(CC(C5)C3)C4)C2=O)c(OC)c1 (stereo not drawn)
→ 13	3	-19	4	8279	-2	6.0
COc1ccc(NC(=O)COC(=O)/C=C/c2ccccc2[N+](=O)[O-])cc1
→ 12	14	-33	1	10722	1	2.8
CCCCn1c(SCC(=O)Nc2cc(C)on2)nc2ccccc2c1=O
→ -9	-15	3	-2	23871*	4	-2.8
CCOc1ccc(C=NNC(=O)c2ccccc2Cl)cc1CN1CC2CC(C1)c1cccc(=O)n1C2 (stereo not drawn)
→ -6	12	/	-1	/	/	1.5
CC(C)NC(=O)CN1CCN(c2ncccn2)CC1
→ 6	0	-26	4	10503	-7	2.2
COc1ccc(C2(CNC(=O)c3ccc(OC)c([N+](=O)[O-])c3)CCCCC2)cc1OC
→ -2	5	-6	13	2514	5	-3.9
O=C(CSc1ccc(-c2ccncc2)nn1)c1ccccc1
→ 0	-4	-31	0	4603	18	-2.5
O=c1nccc(NN=Cc2cccc(O)c2)[nH]1
→ 2	-3	/	5	/	/	7.4
O=[P+](Cc1ccccc1)Cc1ccccc1
→ /	/	-11	/	3300	-7	/
O=C(COC(=O)c1ccc(OC(F)F)cc1)NCCCN1CCCC1=O
→ 1	1	-14	3	5246	4	1.4
O=C(O)c1[nH]c2ccccc2c1CC(=O)N1CCOCC1
→ 4	12	-8	7	19170*	-12	6.3
C[C@@H]1CN[C@@H](CCO)/C1=C\c1ccccc1
→ 1	3	-10	11	3531	/	4.4
Cc1ccc(S(=O)(=O)NCCNc2ccccc2[N+](=O)[O-])cc1
→ 16	17	-12	0	4562	-2	12
COc1ccc(NC(=O)CN2CCOCC2)cc1
→ -4	13	-27	3	3812	14	6.9
COc1cc(OC)cc(C(=O)NCCCNC(=O)c2ccccn2)c1
→ 3	0	-31	5	5078	-7	2.9
COC(=O)c1ccc(=O)n(CC(=O)c2ccc(Cl)cc2)c1
→ -10	-3	-20	9	4584	2	1.8
O=C(CCCCC(=O)Nc1c(I)cc(I)c(C(=O)O)c1I)Nc1c(I)cc(I)c(C(=O)O)c1I
→ 0	7	-21	6	5036	9	7.1
CCCc1c(C)nc2ccc(OC)cc2c1SCCC(=O)O
→ /	/	-19	-3	2153	-1	5.1
COc1ccc(-n2c(Cc3cccn3C)nnc2SCC(=O)Nc2cc(C)cc(C)c2)cc1
→ /	/	6	6	5850	4	4.0
COc1cc(/C=N/NC(=O)c2nc(C)cc(C)n2)ccc1O
→ /	/	-14	/	2441	9	/
O=C(CSc1nnc(Cc2ccccc2)n1C1CCCCC1)N1CCOCC1
→ 8	1	-38	3	9490	0	8.7
Cc1cc2cc(CN(Cc3ccc4c(c3)OCO4)Cc3nnnn3C3CCCC3)c(=O)[nH]c2cc1C
→ 12	1	-11	4	4362	-3	3.9
O=C(CCNC(=O)c1ccco1)Nc1cccc(C(F)(F)F)c1
→ 2	4	-19	14	5368	8	-0.5
CC(=O)OCC(OC(C)=O)C(OC(C)=O)C(OC(C)=O)C(=O)Nc1ccccc1C (stereo not drawn)
→ 2	6	1	-1	/	-11	2.5

# Following part:
# The line under a structure holds: Mtb hypoxia rep	Mtb hypoxia rep growth	PrP UTR inh	Sa ugtP lethal	Autofluor counter	BJeLR viability	Sa RN4220 lethal
O=C(COc1ccc(Cl)cc1)N1CCN(c2ccc([N+](=O)[O-])c(N3CCCCC3)c2)CC1
→ 1	-9	-37	-9	7698	-7	-11
CCN1C(=O)C2C(c3ccc(-c4ccc(C(C)=O)cc4)cc3)N3CCC[C@@]3(C(=O)OC)C2C1=O (stereo partly drawn)
→ -9&-13	6&3	/	10&4	/	/	4.1&3.5
COc1ccc(C)cc1S(=O)(=O)N(C)CC(=O)NC1CCCCCC1
→ 1	8	-62	2	4058	-15	-0.4
COc1cc(NC(=O)c2cc(-c3ccc(C)cc3)on2)cc(OC)c1OC
→ 8	19	-2	-1	3284	-4	0.3
Cc1ccc(NC(=O)COC(=O)CN2C(=O)NC(C)(C)C2=O)cc1S(=O)(=O)N1CCOCC1
→ -10	3	0	-2	3837	-25	-3.3
CCN(CC)c1ccc(C=Nc2ccc(N(C)C)cc2)c(O)c1
→ 10	12	-25	8	4280	-1	8.8
Cc1cccc(-c2ncc(CN3CCC(CO)(CCCc4ccccc4)CC3)cn2)c1
→ 11	11	-38	5	4506	0	5.2
CC1(C)OC(C)(C)/C(=C/Nc2ccccc2)C1=O
→ 6	-3	-22	-2	2255	-4	4.8
COc1ccc(N(CC(=O)NCc2ccc3c(c2)OCO3)S(=O)(=O)c2ccccc2[N+](=O)[O-])c(OC)c1
→ 8	-1	-23	-2	5028	8	4.1
CC(=O)c1ccc(N2CCN(C(=O)c3ccco3)CC2)c(F)c1
→ /	/	-50	7	2876	13	12
COc1ccc(N(C)S(=O)(=O)c2cccc3nsnc23)cc1
→ 13	10	-33	5	2050	3	4.0
NC(=O)CCn1nc(-c2ccc(Cl)cc2)c2ccccc2c1=O
→ /	/	-13	6	3793	-7	6.3
CCCCc1cc2c(c(NC(C)=O)n1)c(=O)oc1ccccc12
→ -7	-3	/	-25	/	-12	2.1
O=C(N/N=C/c1cccnc1)c1ccc2c(c1)OCO2
→ /	/	-7	/	3858	-8	/
CSc1n[nH]c(NCc2cccs2)n1
→ 5	9	-21	6	11960	7	1.8
O=C(C1CCC1)N1CCC(O)(c2cccc(F)c2)CC1
→ 7	9	-30	10	3159	0	3.0
COc1cc(NC(=O)CCCNC(=O)Cn2cnc3sc4c(c3c2=O)CCCC4)cc(OC)c1OC
→ -2	-5	3	-4	3943	0	-2.4
Nc1c(C(=O)O)sc2nc(-c3ccc(F)cc3)cc(-c3ccccc3)c12
→ /	/	8	/	4059	6	/
Cc1ccc(/C=N/n2c(C)nnc2C)o1
→ /	/	-20	/	2177	-1	/
N#CC(c1nc2ccccc2nc1OCCO)S(=O)(=O)c1ccccc1 (stereo not drawn)
→ 9	6	-16	15	4441	-6	9.1
CN1CC[C@]2(CCN3CCc4c(oc5ccccc45)C3C2)N(C)C1=O (stereo partly drawn)
→ 8	3	/	13	/	/	2.6
COc1cc(C(=O)OC(C)C(=O)Nc2ccc3c(c2)OCO3)ccc1OCc1c(C)noc1C (stereo not drawn)
→ /	/	-11	8	3864	12	0.9
Oc1cccc(C=NNc2cc(N3CCCC3)nc(N3CCCC3)n2)c1
→ -28	13	/	-21	/	/	8.7
O=C(NCc1cccs1)C(=O)NCC1OCCCN1S(=O)(=O)c1ccc(F)cc1 (stereo not drawn)
→ 5	4	-9	3	2474	-5	2.0
CCCN=C1NC(=Cc2ccco2)C(=O)N1c1ccccc1
→ 5	3	/	0	/	/	1.7
